2A StopGo – lowers the luciferase signal of an FMDV 2A StopGo reporter | human cells with a luciferase reporter of 2A StopGo recoding; control for the full effect not named in the record | Potency, µM (titrated, usually from 57.9 µM), for inactives: at the highest dose signal change, negative = less light | 410,000 compounds, 1.2% hits | AID 1159524; active = well fitted falling curve with a large enough effect; inconclusive = small, poorly fitted or top-dose-only effect; inactive = no such curve, though single readings can be large or run the other way; tested in HEK293T cells; note: % is set by controls: 0 for no effect and ±100 for the full control effect; nearly all actives have a fitted effect of over 45% in size; luciferase light after 4 h
Cruzain noTriton – blocks cruzain activity in detergent-free assay. 200,000 compounds, 2.3% hits. P25779. AID 1476. purified cruzain, Z-FR-AMC fluorescence, no detergent. Potency, µM, for the others: max response, negative = inhibition, usual class: inhibitors;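 note: plate controls were enzyme without inhibitor for no effect and buffer without enzyme for full effect; nearly all actives have a fitted effect of over 40% in size; top concentration of the series not given in the record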
Target sequence (P25779 123-467 limits assumed): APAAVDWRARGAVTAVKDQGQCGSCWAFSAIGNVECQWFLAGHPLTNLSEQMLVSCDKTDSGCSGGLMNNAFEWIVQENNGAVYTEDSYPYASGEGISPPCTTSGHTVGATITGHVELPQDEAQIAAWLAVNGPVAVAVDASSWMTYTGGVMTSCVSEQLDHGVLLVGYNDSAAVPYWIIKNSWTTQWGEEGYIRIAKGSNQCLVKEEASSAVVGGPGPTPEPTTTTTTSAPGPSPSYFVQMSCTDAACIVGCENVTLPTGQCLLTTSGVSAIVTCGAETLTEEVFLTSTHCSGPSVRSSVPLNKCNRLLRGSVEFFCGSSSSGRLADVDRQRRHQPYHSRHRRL
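Detergent-free condition (0.00005% Triton X-100) in acetate buffer pH 5.5 with DTT. 1.5 nM enzyme and compound were pre-mixed 15 min, then 2 uM Z-FR-AMC substrate added; reaction progress from fluorescence change between first and third reads (60 s).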
Cruzain inh Det – cruzain (T. cruzi) inhibition with detergent | Potency, µM, inactives show max response, negative = inhibition, most hits filed as inhibitors | 200,000 compounds, 0.43% hits | AID 1478 | purified cruzain, Z-FR-AMC fluorescence, 0.01% Triton | P25779;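 note: plate controls were neutral wells for no effect and buffer without enzyme for full effect; nearly all actives have a fitted effect of over 40% in size; top concentration of the series not given in the record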
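Steps: dispense cruzain (1.5 nM final) in acetate buffer pH 5.5 with DTT and 0.01% Triton X-100; pin-transfer compounds; incubate 15 min RT; add Z-FR-AMC (2 uM final); read fluorescence every 30 s, using the 60 s intensity change.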
RE007 growth inh – less growth of the S. pombe RE007 Vpr strain; S. pombe RE007 Vpr strain, BacTiter-Glo ATP luminescence, 24 h; control for the full effect not named in the record; AID 651644; 360,000 compounds, 0.21% hits; Potency, µM (highest dose often 92.2 µM), for inactives: at the top dose activity change, negative = less growth; active = well fitted falling curve with a large enough effect; inconclusive = small, poorly fitted or top-dose-only effect; inactive = no such curve, though single readings can be large or run the other way;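 note: % is set by controls: 0 for no effect and ±100 for the full control effect; nearly all actives have a fitted effect of over 50% in size; the assay follows cell death caused by Vpr and the record does not say whether a fall means rescue or toxicity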
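Fission yeast RE007 carrying one integrated HIV-1 vpr copy, seeded at OD 0.01 in PMG+AL medium with 23 nL pinned compound. Grown 24 h at 30 degrees; viability read by BacTiter-Glo luminescence after 5 min.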
Lassa entry inh – inhibitors of Lassa virus binding or cell entry; Potency, µM (doses to about 37.9 µM), without a hit: top-dose activity change, negative = inhibition, actives largely listed as inhibitors; Lassa virus pseudotype entry inhibition, cell reporter; control for the full effect not named in the record; AID 540256; 300,000 compounds, 1.2% hits; active means well fitted inhibition curve with a large enough effect; inconclusive means small, poorly fitted or top-dose-only effect, or effect the other way; inactive means flat fitted curve, though single readings scatter; tested in HEK293 cells; note: % is set by controls: 0 for no effect and ±100 for the full control effect; nearly all actives have a fitted effect of over 50% in size; luciferase read-out
SARS PLpro yeast – blocks SARS-CoV papain-like protease in a yeast assay | S. cerevisiae expressing SARS-CoV PLpro, growth rescue; control for the full effect not named in the record | Potency, µM (doses to about 32.9 µM), inactives show top-dose activity, positive = growth rescue | 330,000 compounds, 0.19% hits | AID 485353; active means well fitted rising curve with a large enough effect; inconclusive means small, poorly fitted or top-dose-only effect; inactive means no such curve, though single readings can be large or run the other way; note: 0% is about no effect; nearly all actives have a fitted effect of over 55% in size; growth read by luminescence after 48 h
MARV entry inh – blocks Marburg virus binding to or entry into cells; Marburg virus pseudotyped entry inhibition, cell reporter; control for the full effect not named in the record; about a third of the inactives were read at about 46 µM; Potency, µM (top dose mostly 37.8 µM), without a hit: top-dose activity change, negative = inhibition, most hits filed as inhibitors; 300,000 compounds, 1.8% hits; AID 540276; active = well fitted inhibition curve with a large enough effect; inconclusive = small, poorly fitted or top-dose-only effect, or effect the other way; inactive = flat fitted curve, though single readings scatter; tested in HEK293 cells; about a fifth of its hits are not listed in these tables; note: % is set by controls: 0 for no effect and ±100 for the full control effect; luciferase read-out
NS1 function inh – blocks influenza NS1 protein function; S. cerevisiae slowed by influenza A NS1, growth recovery by OD600; Potency, µM (titrated, usually from 46.1 µM), inactives show at the highest dose activity, positive = more growth; 270,000 compounds, 0.4% hits; AID 2326; active means well fitted rising curve with a large enough effect; inconclusive means small, poorly fitted or top-dose-only effect; inactive means no such curve, though single readings can be large or run the other way; note: nearly all actives have a fitted effect of over 50% in size
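Growth recovery, yeast-based: influenza A NS1 expressed in S. cerevisiae causes slow growth, and suppressors are detected by OD600. The parent strain without NS1 is used as positive control.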
* marks the source's active call; other numbers are inactive results; ? = inconclusive; · = not tested or not shown; [ ] = remark or other dose. Unless noted, calls come from the whole dose curve; as a rule, active = well fitted curve in the direction sought with a large enough effect; inconclusive = small, poorly fitted or top-dose-only effect, or another doubt; inactive = no such curve, though single readings can be large; an effect the other way counts as inactive or inconclusive. Potency is the fitted concentration of half-maximal effect.

SMILES	2A StopGo	Cruzain noTriton	Cruzain inh Det	RE007 growth inh	Lassa entry inh	SARS PLpro yeast	MARV entry inh	NS1 function inh
Cn1nccc1C(=O)N1CCc2ccccc21	15%	1%	-2.6%	-1%	13%	4%	-2%	8%
Cc1cc(C)c2oc(-c3cccc(NC(=O)c4ccco4)c3)nc2c1	9%	?	-7.7%	·	-5%[46.1 µM]	·	·	·
COc1cc2c(cc1OC)CN(CC(=O)NC(=O)NC1CCCCC1)CC2	-23%	·	·	3%	-9%	-4%	-13%[46.1 µM]	·
O=C(Cn1nc(-c2ccccc2)ccc1=O)Nc1ccc(N2CCN(C(=O)c3cccs3)CC2)cc1	-20%	·	·	2%	?	-2%	?	?
COc1ccc(-c2[nH]ncc2CN2CCC(c3ccncc3)CC2)cc1F	-20%	·	·	4%	15%	-4%	0%[46.1 µM]	3%
CN(C)c1nc(-c2ccccc2)c2cc(Cl)ccc2n1	-26%	·	·	-2%	·	?	·	0%
O=C(CCNC(=O)c1ccco1)NCCc1c[nH]c2ccccc12	-7%	·	·	3%	-30%	1%	0%	·
COc1ccc(-n2c(=O)c3ccccc3c3ccccc3c2=O)c(OC)c1	?	-1%	-3.8%	-8%	-20%	6%	10%	3%
N=c1c2ccccc2nnn1-c1cccc(C(F)(F)F)c1	2%	·	·	0%	15%[46.1 µM]	-1%	-3%	-3%
Cn1cnnc1SCC(=O)c1ccc2c(c1)OCCO2	18%	?	-21%	9%	20%	-2%	?	-3%
Cc1ccc(N(CC(C)C)S(=O)(=O)c2nnc(NC(=O)c3cccs3)s2)cc1	-11%	2%	-1.9%	·	14%[46.1 µM]	·	·	·
Cc1cc(C)c(NC(=O)Cn2c(=O)n(CCc3ccccc3)c(=O)c3ccccc32)c(C)c1	-4%	-6%	-2.9%	·	?	·	-10%[46.1 µM]	·
Cc1ccc(-c2cccc(CN3CCN(C(C)C)C(CCO)C3)c2)o1 (configuration not stated)	-16%	·	·	-10%	·	2%	·	1%
CCC(=O)N1CCN(c2ccccc2NC(=O)COc2cccc(C)c2C)CC1	?	·	·	-8%	-26%	-4%	?	-31%
CCOC(=O)N1CCN(C(=O)c2cn(C)c3ccc(S(=O)(=O)N(CC)CC)cc3c2=O)CC1	-8%	·	·	1%	·	0%	·	-2%
O=C(NCc1cccnc1)c1ccc([N+](=O)[O-])o1	-1%	·	·	-5%	·	0%	·	-2%
Cc1cccc(C(=O)NC2CCN(C(=O)Nc3ccccc3C)CC2)c1	-16%	·	·	10%	·	0%	·	-3%
Cc1ccc(S(=O)(=O)N[C@@H](CC(C)C)C(=O)N2CCC(C(=O)N[C@@H](Cc3ccccc3)C(=O)O)CC2)cc1	-19%	·	·	8%	·	0%	·	28%
CC(C)[C@H](NC(=O)[C@H]1N2C(=O)c3ccccc3C2SC1(C)C)C(=O)NCc1ccco1 (some centres not stated)	3%	·	·	2%	·	9%	·	23%
Cc1cc(C)cc(NC(=O)Oc2ccccc2N2CCCCC2)c1	16%	·	·	1%	1%	1%	14%[46.1 µM]	-1%
OCCCNc1nc(-c2ccc(Br)cc2)nnc1-c1ccc(Cl)cc1	-9%	-5%	-5.8%	-1%	0%	-69%	-40%	-19%
Cc1ccc(-c2c3c(=O)n(C)c(=O)n(C)c3cn2-c2cc(C)ccc2O)cc1	-4%	19%	-22%	·	?	·	-6%[46.1 µM]	·
O=C1C2C(c3ccccc3)CC=CC2[C@H](c2cccc([N+](=O)[O-])c2)N1Cc1ccccc1 (some centres not stated)	-15%	·	·	6%	·	-8%	·	-15%
CC1CN(S(=O)(=O)c2cccc(C(=O)NCCCn3ccnc3)c2)CC(C)O1 (configuration not stated)	-1%	-6%	0.5%	9%	14%	·	-2%	-5%
COc1cccc(-c2nn(-c3ccccc3)cc2C(=O)Nc2nccs2)c1	0%	?	-7.6%	0%	-25%	0%	?	?
COc1ccc(S(=O)(=O)N(CC(=O)NCc2ccncc2)Cc2ccccc2)cc1	-28%	·	·	-2%	13%	3%	9%[46.1 µM]	-4%
NC(=O)c1ccc(NC(=O)COC(=O)c2cc3ccccc3cc2O)cc1	9%	·	·	14%	12%[46.1 µM]	-5%	-6%[46.1 µM]	·
O=C(O)CN1C(=O)c2ccc(Oc3ccc([N+](=O)[O-])cc3)cc2C1=O	10%	·	·	-2%	1%	0%	-7%	-5%
CC(NS(=O)(=O)c1ccc(Br)cc1)C(=O)NCc1ccco1 (configuration not stated)	19%	·	·	5%	0%	-1%	1%	-21%
Cc1ccc2c(cnn2C(=O)CCC(=O)N2CCCCC2)c1	-22%	·	·	-1%	·	-7%	·	-37%
COc1ccc(NC(=O)CSc2oc(-c3cccs3)nc2S(=O)(=O)c2ccc(C)cc2)c(OC)c1	14%	-22%	-2.9%	·	-18%[46.1 µM]	·	?	·
COc1cc(S(=O)(=O)NCc2ccccc2Cl)ccc1-n1cnnn1	80%[activator]	·	·	-20%	-2%	0%	-9%[46.1 µM]	-4%
COc1ccc(/C=N/n2cnc3scc(-c4cccs4)c3c2=O)cc1OC	?	?	-7.3%	0%	-3%	-4%	?	5%
O=C(Nc1ccc(S(=O)(=O)N2CCCC2)cc1)C1COc2ccccc2O1 (configuration not stated)	-15%	1%	-5.1%	2%	·	11%	·	-65%
CCO/C([O-])=N/c1sn[n+](C)c1C	-16%	·	·	0%	·	0%	-6%	4%
COc1cc(CCC(=O)OCC(=O)Nc2ccc(F)c(F)c2F)cc(OC)c1OC	-11%	·	·	-8%	-1%	1%	14%	-3%
COC(=O)CCP(=O)(O)Cc1ccccc1CP(=O)(O)CCC(=O)OC	-11%	-4%	2.3%	9%	26%	-2%	9%	-4%
CCOc1ccc(CCNC(=O)COC(=O)CSc2ccc(C)cc2)cc1OCC	-22%	·	·	0%	8%	-3%	?	·
CC(=O)Nc1cccc(NC(=O)c2cc(-c3ccccn3)nc3ccc(Cl)cc23)c1	?	·	·	7%	3%	?	-24%	-7%
CC(=O)c1cccc(NC(=O)C2CCN(S(=O)(=O)c3ccc4c(c3)oc(=O)n4C)CC2)c1	-21%	2%	-1.1%	·	1%[46.1 µM]	·	-20%[46.1 µM]	·
CC(=O)Nc1ccc(NC(=O)CSc2cn(CC(=O)N(C(C)C)C(C)C)c3ccccc23)cc1	-3%	2%	-2.6%	·	0%[46.1 µM]	·	·	·
Cc1ccc(S(=O)(=O)N2CCOC2CNC(=O)C(=O)NCc2ccccn2)cc1 (configuration not stated)	-16%	·	·	7%	5%	3%	-2%	22%
CC1CCn2c(nc3cc(C(=O)NCCc4ccc(Cl)cc4)ccc32)C1 (configuration not stated)	-12%	?	5.1%	·	25%[46.1 µM]	·	·	·
CCc1ccc(NC(=O)CNC(=O)c2nn(-c3ccc(OC)cc3)c(=O)c3ccccc23)cc1	-10%	·	·	9%	-16%	5%	-6%[46.1 µM]	2%
CCOc1ccc(-n2c(=O)c3c(C)c(C)sc3n(Cc3ccccc3C)c2=O)cc1	0%	-3%	-1.6%	·	-1%[46.1 µM]	·	6%[46.1 µM]	·
CNC(=O)C(=O)NCC(c1ccc2c(c1)OCO2)N1CCOCC1 (configuration not stated)	-6%	-5%	0.3%	·	4%[46.1 µM]	·	·	·
CCC(C(=O)N1CCCC1)n1nc(C)c2c(C)n(-c3ccccc3)nc2c1=O (configuration not stated)	1%	·	·	7%	·	3%	·	-1%
O=c1oc2cc(S(=O)(=O)NCCCO)ccc2c2ccc(S(=O)(=O)NCCCO)cc12	-9%	·	·	-3%	·	1%	·	1%
COc1ccc(-c2cccc(C(=O)Nc3ccc(C)cc3)c2)cc1	4%	-7%	1.3%	-3%	-16%	9%	-6%	12%
COc1ccc(C(=O)NCC(=O)OCC(=O)N2CC(C)OC(C)C2)cc1OC (configuration not stated)	-8%	·	·	-4%	?	6%	2%	·

(listing goes on)
SMILES	2A StopGo	Cruzain noTriton	Cruzain inh Det	RE007 growth inh	Lassa entry inh	SARS PLpro yeast	MARV entry inh	NS1 function inh
COc1ccccc1C(=O)Nc1c2c(nn1-c1cccc(C)c1C)CS(=O)(=O)C2	-26%	-20%	?	10%	-12%[14.3 µM]	2%	?	2%
Cc1cc(Nc2ccc(Cl)cc2)n2ncnc2n1	4%	·	·	-11%	·	1%	·	5%
CC(Oc1ccc2c3c(c(=O)oc2c1)CCC3)C(=O)NCc1cccnc1 (configuration not stated)	-5%	·	·	-5%	9%[46.1 µM]	4%	-9%[46.1 µM]	-5%
N/C(CC(=O)NC1CCCCC1)=N\OCC(=O)Nc1ccc(Cl)c(Cl)c1	-8%	·	·	2%	-3%	1%	-19%[46.1 µM]	-3%
Cc1cc(Cl)ccc1OC(C)C(=O)NNC(=O)C1CCCCC1C(=O)O (configuration not stated)	-26%	·	·	-3%	·	-1%	·	14%
C[C@H](NC(=O)C1CCN(S(=O)(=O)c2ccccc2)CC1)C(=O)NCc1ccccc1	-1%	·	·	3%	-7%[46.1 µM]	1%	?	-1%
Cn1nc(/C=C/c2ccccc2)ccc1=O	45%[activator]	·	·	?	11%	-6%	?	·
COc1ccc(CN2CCN(C(=O)CCC(=O)Nc3nnc(C(F)(F)F)s3)CC2)cc1F	-27%	·	·	-9%	·	-6%	·	-1%
O=C1CS/C(=N/N=C/c2cccs2)N1	36%[activator]	·	·	-16%	0%	-1%	2%[46.1 µM]	·
COc1cc(C(=O)NCCOc2cc(C)ccc2C(C)C)cc(OC)c1OC	?	·	·	13%	2.8µM*	0%	3.2µM*	0%
Cc1ccc(NC(=O)Cn2nnc3ccccc32)c(C)c1	-2%	·	·	8%	15%	0%	2%[46.1 µM]	·
O=C(Cn1nc(-c2ccccc2)ccc1=O)Nc1ccc(-n2cnnn2)cc1	-2%	·	·	3%	11%	1%	-6%[46.1 µM]	-6%
COC(=O)c1ccc(COc2ccc3c(c2)CCC3)o1	25%	·	·	-5%	?	-1%	?	-34%

Screening results: PubChem, National Center for Advancing Translational Sciences (NCATS)
